Compound activity from PubChem BioAssay.
YopH inh: YopH tyrosine phosphatase inhibitors, primary screen, biochemical, fluorescence Ex485/Em525 | YopH tyrosine phosphatase [Yersinia enterocolitica] | inhibition, %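 (about 10 µM by stock and volumes)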 | 140,000 tested, 0.16% active | AID 898, 2007;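 active means inhibition of 50% or more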;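 further: controls were vehicle for no effect and minimum signal wells for full effect; inactives centre near -20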
RecA splice inh: Mtb RecA intein splicing inhibitors, primary screen, biochemical, fluorescence, HTS; cell-free RecA intein splicing; inhibition, %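 (about 9 µM by stock and volumes)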; 290,000 tested, 0.75% active; AID 2221, 2009; in the data active means inhibition above about 30%; inconclusive means no clear call, values can overlap the other calls;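 further: 0% = vehicle wells and 100% = reference inhibitor control wells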
Target sequence (P9WHJ3 whole entry, looked up, canonical isoform): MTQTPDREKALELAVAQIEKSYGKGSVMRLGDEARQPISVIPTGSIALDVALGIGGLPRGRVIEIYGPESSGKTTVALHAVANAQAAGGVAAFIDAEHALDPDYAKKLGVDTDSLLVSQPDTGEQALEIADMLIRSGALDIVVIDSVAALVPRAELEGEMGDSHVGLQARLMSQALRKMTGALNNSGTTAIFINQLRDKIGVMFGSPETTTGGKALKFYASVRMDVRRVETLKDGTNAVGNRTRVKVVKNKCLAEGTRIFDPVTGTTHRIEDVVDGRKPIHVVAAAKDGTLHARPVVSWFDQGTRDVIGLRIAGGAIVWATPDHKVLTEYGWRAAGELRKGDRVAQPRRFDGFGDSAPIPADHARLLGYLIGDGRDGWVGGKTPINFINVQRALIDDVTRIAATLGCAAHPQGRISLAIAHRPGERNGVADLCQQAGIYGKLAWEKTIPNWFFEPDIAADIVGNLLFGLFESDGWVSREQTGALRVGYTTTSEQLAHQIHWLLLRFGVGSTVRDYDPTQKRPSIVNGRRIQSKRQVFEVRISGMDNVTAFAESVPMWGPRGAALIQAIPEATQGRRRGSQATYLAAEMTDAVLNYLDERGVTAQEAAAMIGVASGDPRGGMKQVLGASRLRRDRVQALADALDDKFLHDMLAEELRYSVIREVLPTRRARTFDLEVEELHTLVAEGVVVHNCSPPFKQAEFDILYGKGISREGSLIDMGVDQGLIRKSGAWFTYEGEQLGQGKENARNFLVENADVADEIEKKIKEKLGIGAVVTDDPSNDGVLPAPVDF
Arbovirus anti: antivirals against arbovirus infection, primary screen, cell-based, full library, 10K replicate subset. arbovirus infection cell-based antiviral screen. inhibition, % at 10 µM. 200,000 tested, 0.37% active. AID 1251, 2008;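 active means inhibition from about 30%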;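 further: bluetongue infection of BSR cells; cell survival read as ATP light after 72 h; 0% = infected wells without compound and 100% = uninfected wells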
Mtb betalactam: beta-lactam sensitization of Mtb H37Rv, H37Rv. inhibition, % at 25 µM. 330,000 tested, 0.27% active. M. tuberculosis H37Rv growth with meropenem, percent inhibition; hits of this screen are not shown here;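 active means about 74% or more and at least 40 points above the plate without the antibiotic, then above 30% in a dose series; inconclusive means first-round hits that could not be retested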;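 further: growth measured after seven days incubation then overnight dye step; 0% = bacteria only wells and 100% = bacteria with antibiotic; twin plates without the antibiotic show which effects depend on it; some results filed as inactive read as strong as hits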
Mtb growth: M. tuberculosis H37Rv growth inhibitors, H37Rv strain (AID 1626); M. tuberculosis H37Rv growth inhibition; higher % means a stronger effect; 220,000 tested, 0.95% active; one-dose inhibition, % at 10 µM; IC50 in µM for titrated hits;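 active means confirmed in a dose series; inconclusive means inhibition above 80% but not taken into the dose series; inactive means below 80% or under 30% at every dose of the series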;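 further: bacteria incubated seven days before Alamar blue readout; 0% = bacteria only wells and 100% = bacteria with antibiotic wells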
Arbovirus anti repeat: recorded beside Arbovirus anti, whose call it bears; inhibition, %; measured here: 10K subset replicate screen; many hits read low in the repeat;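 first of two repeat runs on a subset; 0% = infected and 100% = uninfected wells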
Starred values were filed as active, the others as inactive; u = inconclusive; x = not tested or not shown. Not all compounds are listed (hit frequency here may not be typical).

SMILES | YopH inh | RecA splice inh | Arbovirus anti | Mtb betalactam | Mtb growth | others
COc1ccc(-n2nnnc2SCC#CCO)cc1 | -32 | 1.5 | -19 | 9 | 8%
N#Cc1cccc(NC(=O)CCNS(=O)(=O)c2ccc3[nH]c(=O)oc3c2)c1 | x | 2.8 | x | 5 | x
Cc1ccccc1-n1c(=O)cc(N2CCN(Cc3ccccc3)CC2)[nH]c1=O | -35 | 0.7 | 6 | 2 | 4%
CCC(=O)NC(=S)Nc1ccc(Cl)cn1 | -26 | 0.5 | 7 | -6 | 5%
CCc1ccc(NC(=S)NC(=O)c2c(-c3ccccc3Cl)noc2C)cc1 | x | -1.9 | x | -3 | 3%
CCOC(=O)C1CCCN(c2c(NCC3CCCO3)c(=O)c2=O)C1 (centres undefined) | -46 | 0.7 | 6 | -6 | 7%
COc1ccc(-c2nncnn2)cc1 | -27 | 1.3 | -16 | 21 | 2%
O=C(Nc1ccccc1)N1CCCc2ccccc21 | -13 | 2.9 | -8 | 27 | 3%
O=C(O)C1CCC(CNS(=O)(=O)c2ccc(Cl)cc2)CC1 (centres undefined) | x | 0.4 | x | 4 | x
CSc1ccccc1NC(=O)CSCc1ccc(C)cc1 | -35 | 3.6 | -12 | 36 | 5%
COc1cccc(Nc2nc(N)c([N+](=O)[O-])c(NCc3ccco3)n2)c1 | x | 9.6 | x | 22 | 14%
Cc1ccc(C(=O)N2CCCCCC2)cc1Br | -34 | 0.8 | 1 | 7 | -4%
O=C(NCc1ccco1)c1ccc(Cn2c(=O)c3ccccc3n(Cc3ccc(Cl)cc3)c2=O)cc1 | -2 | x | -6 | 4 | 0%
C=CCN(C(=O)c1csnn1)C(C(=O)NCc1ccccc1)c1cccs1 (centres undefined) | x | -0.9 | x | -2 | x
COc1cccc(C(=O)N/N=c2\oc3c(OC)cccc3cc2C(=O)NCc2ccccc2)c1 | -30 | -4.1 | 5 | 1 | 4%
O=C(c1coc(=O)c(Br)c1)N1CCC(C(O)(c2ccccc2)c2ccccc2)CC1 | x | 0.2 | x | 10 | 0%
COc1ccc(-c2nc(NC(=O)CCNC(=O)c3ccco3)sc2C)cc1 | x | -4.1 | 16 | 35 | 15%
O=c1c2ccccc2c(/C=N/n2cnnc2)c(O)n1-c1ccccc1F | x | -309 | 0 | 0 | -8%
O=C(O)COCC(=O)Nc1ccc(Oc2ncnc3cc(Cl)ccc23)nc1 | x | -0.4 | x | 0 | -7%
CN(C)S(=O)(=O)N1CCN(c2ccccc2)CC1 | -16 | 0.2 | 3 | -4 | 2%

Grouped by structure, the entries above with an aryl thioether with sulfur outside any ring (2)
SMILES | YopH inh | RecA splice inh | Arbovirus anti | Mtb betalactam | Mtb growth | others
COc1ccc(-n2nnnc2SCC#CCO)cc1 | -32 | 1.5 | -19 | 9 | 8%
CSc1ccccc1NC(=O)CSCc1ccc(C)cc1 | -35 | 3.6 | -12 | 36 | 5%

The list goes on:
SMILES | YopH inh | RecA splice inh | Arbovirus anti | Mtb betalactam | Mtb growth | others
Cc1ccc(C(C(=O)NC(C)(C)C)N(C(=O)c2csnn2)C2CC2)cc1 (centres undefined) | 0 | 2.1 | 3 | 3 | -10%
Cc1ccc(N(CC(=O)Nc2cccc(N(C)S(C)(=O)=O)c2)S(C)(=O)=O)cc1 | -23 | x | 2 | -4 | -2%
CC(C)(C)OC(=O)NCCc1n[nH]c(=S)o1 | x | 0.8 | x | 3 | -5%
Fc1ccc(C2=NN(c3ccccc3)C(c3ccco3)C2)cc1 (centres undefined) | x | -1.9 | -8 | -1 | -2%
Cc1cccc(C(=O)NC(NC(=S)Nc2ccc(S(N)(=O)=O)cc2)C(Cl)(Cl)Cl)c1 (centres undefined) | -15 | -5.2 | 8 | -2 | 3%
COC(=O)C1=C(C(=O)OC)[C@@H]2N(C)c3ccc(OC)cc3[C@@]23C[C@@H](C(=O)OC)N(S(=O)(=O)c2ccc([N+](=O)[O-])cc2)C3=N1 | x | -1.2 | x | 11 | 3%
CCn1c(NCc2cc(OC)c(OC)c(OC)c2)nc2ccccc21 | x | -5.1 | x | 3 | x
Cc1ccc(-c2nnc(N3CCN(C(=O)COc4ccccc4)CC3)c3ccccc23)cc1 | -1 | 14 | -30 | 95 | 79%
COc1ccc2c(c1)nc(N)n2Cc1ccccc1 | -33 | 2.5 | 7 | -5 | x
CC(=O)Nc1ccc(S(=O)(=O)Nn2cnnc2)cc1 | x | -4.4 | 0 | -2 | 5%
CCS(=O)(=O)N1CCN(C(=O)c2cccnc2)CC1 | -18 | 1.0 | 5 | -2 | -4%
CN(CC(=O)Nc1cccc(F)c1)C(=O)c1ccc(COc2ccccc2)o1 | x | -0.6 | x | 6 | x
CCCC(C(=O)c1ccccc1)n1cncn1 (centres undefined) | -26 | -2.4 | 7 | -7 | -4%
Cc1ccc(SC2=C(Sc3ccc(C)cc3)C(=O)c3ccccc3C2=O)cc1 | x | 12 | x | -2 | -4%
O=C(CN(c1ccccc1)S(=O)(=O)c1ccccc1[N+](=O)[O-])NN=C1CCCCCCC1 | 7 | 2.1 | 2 | 10 | -7%
Cn1c(SCc2ccc(C#N)cc2Cl)nc2ccccc21 | 0 | 1.4 | -2 | 10 | 18%
CCCN1C(=O)c2ccc(C(=O)Nc3ccc4c(c3)OCO4)cc2C1=O | x | -4.0 | x | 55 | x
C#C[C@]1(OC(C)=O)CCC2C3CCC4=CC(=O)CC[C@@H]4C3CC[C@@]21C (some centres undefined) | x | 18 | x | -2 | x
Cn1c(N)c(C#N)c2c(c1=S)COC(C)(C)C2 | -13 | -1.5 | 7 | -25 | x
O=C(COc1ccc(/C=N/NC(=O)c2ccccc2O)cc1)Nc1ccccc1 | x | -2.1 | -7 | 11 | -1%

The list goes on (two carried over from the part before).
SMILES | YopH inh | RecA splice inh | Arbovirus anti | Mtb betalactam | Mtb growth | others
Cn1c(N)c(C#N)c2c(c1=S)COC(C)(C)C2 | -13 | -1.5 | 7 | -25 | x
O=C(COc1ccc(/C=N/NC(=O)c2ccccc2O)cc1)Nc1ccccc1 | x | -2.1 | -7 | 11 | -1%
CCOc1cc2c(cc1OCC)C(c1ccc(OC)cc1)N(c1ccccc1)C(=O)C2 (centres undefined) | -10 | -0.2 | 9 | 12 | 4%
Cc1occc1C(=O)NNC(=O)COc1ccc(Br)cc1Br | -31 | -1.8 | 10 | -2 | -3%
CNC(=S)Nc1ccc(Br)cc1 | -20 | -1.0 | 1 | -11 | 0%
Nc1nc(COc2ccccc2C=O)nc(Nc2ccccc2)n1 | x | 2.6 | x | 3 | x
O=C(Cn1c2c(c(-c3ccccc3Cl)cc1=O)CCC2)NCC1CCCO1 (centres undefined) | x | 1.9 | x | -3 | 0%
CC1CCN(CCCCOc2ccc(Br)cc2)CC1 | 13 | -1.1 | -18 | -6 | 4%
CCn1c(=NC(=O)CSCC(=O)Nc2nccs2)sc2ccccc21 | 2 | 1.0 | -3 | 1 | -12%
CCOC(=O)N1CCN(C(=O)CSc2nnc(-c3cccc(OC)c3)o2)CC1 | -32 | -0.9 | -7 | 100 | u
NC(=O)COc1cc2oc(=O)c3c(c2cc1Cl)CCCC3 | x | -3.6 | x | 5 | x
CC1CCCCC1NC(=O)C1CC(=O)N(Cc2ccccc2)C1 (centres undefined) | x | 3.9 | x | -19 | x
CSCCCN1CCCC(CO)(Cc2ccc(F)cc2)C1 (centres undefined) | x | 0.6 | x | 9 | x
O=C(O)C1C2CCC(O2)C1C(=O)Nc1ccccc1Br (centres undefined) | x | -2.6 | x | 0 | x
CCO[C@H]1OC(C(=O)N2CCN(Cc3ccc4c(c3)OCO4)CC2)=C[C@@H](c2cn(C(C)=O)c3ccccc23)[C@@H]1CCCO | x | 3.9 | -17 | 35 | x
CCOc1cc(C#N)c(NC(=O)Cn2nnc3ccccc32)cc1OCC | -30 | 1.4 | -2 | -1 | 4%
Cc1csc(SCc2nnc(-c3ccccc3Br)o2)n1 | -47 | 2.8 | 1 | 10 | -3%
Oc1nc(Nc2ccc(Cl)cc2Cl)sc1/C=C1\C=Nc2ccccc21 | -32 | 2.4 | 10 | 5 | 16%
O=C(CN1CCNCC1)Nc1ccccc1Cl | -31 | -1.4 | -3 | 0 | -7%
COc1cc(/C=C2/SC(=S)N(C)C2=O)ccc1OC(=O)c1ccco1 | -12 | -3.2 | 1 | 26 | 4%
Cc1ccc(-c2nc(CSCC(=O)NC3CCN(Cc4ccccc4)CC3)c(C)o2)cc1 | x | -0.2 | x | 3 | x
O=C(CCC(=O)N1CCOc2ccc(Cl)cc21)NCCCN1CCOCC1 | x | -2.2 | x | 6 | x

Next part (2 carried over from the part before).
SMILES | YopH inh | RecA splice inh | Arbovirus anti | Mtb betalactam | Mtb growth | others
Cc1ccc(-c2nc(CSCC(=O)NC3CCN(Cc4ccccc4)CC3)c(C)o2)cc1 | x | -0.2 | x | 3 | x
O=C(CCC(=O)N1CCOc2ccc(Cl)cc21)NCCCN1CCOCC1 | x | -2.2 | x | 6 | x
CC(C)(C)NC(=O)NC(=O)CSc1cccc(C(F)(F)F)c1 | x | -1.1 | 3 | 6 | 2%
CC(=O)C1=C(O)C(=O)N(c2ccc(Br)cc2)C1c1ccc(Cl)cc1 (centres undefined) | x | 4.4 | x | 45 | x
Cc1cccc(CN2CCCC(C(=O)Nc3ccc(-c4cscn4)cc3)C2)c1 (centres undefined) | x | 2.1 | x | 98 | x
CCOc1cc(NC(=S)NCCCN2CCOCC2)c(OCC)cc1NC(=O)c1cccc(C)c1 | x | x | 4 | 2 | 3%
COc1ccccc1NC(=O)CSc1nnc(-c2ccoc2C)n1CCc1ccccc1 | 0 | 3.7 | -6 | -13 | -7%
CCOCCn1c(SCc2ccc(F)cc2)nc2c1c(=O)[nH]c(=O)n2C | -21 | 0.0 | -1 | 4 | 3% | Arbovirus anti repeat=6
Cc1ccc(NC(=O)[C@H](C)NC(=O)C2CCN(C(=O)[C@@H](N)CC(C)C)CC2)cc1 | x | -1.5 | x | -11 | x
CC(=O)c1sc(Nc2ccc(C)cc2)nc1C | x | -0.6 | 0 | 3 | 2%
CCCN(CCC)S(=O)(=O)c1ccc(C(=O)Nc2ccc(OCC(=O)N3CCOCC3)cc2)cc1 | -3 | -1.4 | -2 | -13 | -5%
COc1ccc(-c2ccc(C(=S)N3CCN(C(C)=O)CC3)o2)cc1 | 2 | -1.6 | 4 | 27 | 10%
CCOC(=O)c1ccc(OCc2c(C)noc2C)cc1 | 5 | x | -6 | 0 | 8%
COc1ccccc1-c1nnc2sc(-c3cc4ccccc4o3)nn12 | -10 | 3.7 | -14 | 4 | x
COc1ccc(N2CCN(C(=O)Cc3ccc(Br)cc3)CC2)cc1 | x | 0.3 | x | 7 | 0%
COC(=O)c1c(C)oc(C)c1S(=O)(=O)NC(c1ccccc1)c1ccccc1 | x | 3.9 | x | -2 | -6%
O=C1Nc2ccccc2C(=O)N2[C@H](c3ccccc3)[C@@H]3C(=O)N(Cc4ccccc4)C(=O)[C@@H]3[C@H]12 | x | 1.0 | x | -7 | x
Cc1ccccc1Nc1nc(N)nc(CN(C)c2ccccc2)n1 | -11 | 1.4 | -5 | 42 | 18%
O=C(NCCc1cccc(Cl)c1)c1ccc(Cl)c([N+](=O)[O-])c1 | -14 | 9.5 | 2 | 64 | 18%
O=C(O)CCSCCC(=O)O | -36 | -1.4 | 2 | -8 | -9%
CCOC(=O)CNc1ncc([N+](=O)[O-])cc1C#N | -15 | -2.9 | -3 | -2 | 2%
O=C(NCc1ccc(F)cc1)C1CCN(S(=O)(=O)N2CCOCC2)CC1 | x | 3.5 | 5 | -4 | -5%
O=C(CSc1nc(-c2ccccc2)cc(C(F)(F)F)n1)NCCN1CCOCC1 | -23 | 0.1 | 1 | -4 | -22%
CCCCCC(=O)N/N=C/c1ccccc1[N+](=O)[O-] | x | -2.5 | 18 | -8 | 5%
CSc1cccc(NC(=S)N2CCCN(Cc3ccccc3F)C2)c1 | x | -2.2 | -3 | -8 | 5%
CNc1cc(Cl)nc(SC)n1 | x | 0.1 | 7 | 8 | 66%
CN(C)CCN(C(=O)c1ccc(C(=O)c2ccccc2)cc1)c1nc2cc3c(cc2s1)OCO3 | x | 4.2 | x | 1 | x
O=C(CSc1nncn1-c1ccccn1)Nc1ccccc1Cl | x | -1.1 | x | -5 | x
CC1(NC(=S)NCCCCCCNC(=S)NC2(C)CCS(=O)(=O)C2)CCS(=O)(=O)C1 (centres undefined) | x | -3.3 | x | -3 | -12%
Cc1ccc(OCC(=O)Nc2ccc(-c3nc4ncccc4o3)cc2)c(C)c1 | -16 | 0.4 | -2 | 87 | -5%
Cc1ccc(-c2cc3c(N=O)c4ccccc4c-3n[nH]2)cc1 | x | -0.2 | -15 | 4 | 11%
O=c1c2ccccc2n(Cc2ccccc2F)c(=O)n1Cc1ccccc1F | 15 | 6.7 | -7 | 12 | -16%
